Source: PubChem
Six1-Eya2 blk = qHTS Assay for Inhibitors of the Six1/Eya2 Interaction | Homeobox protein SIX1 (Homo sapiens) + Protein phosphatase EYA2 (Homo sapiens), … | AlphaScreen GST-Six1/His-Eya2 binding, biochemical; active compounds read low; control for the full effect not named in the record | activity change, % (no concentration beside the values) | actives 0.56% (n = 360,000); in the data active = activity change below about -65%; inconclusive = about -30% to -65%; inactive = above about -30%; note: % is set by controls: 0 for no effect and ±100 for the full control effect
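AlphaScreen with GST-Six1 and His-Eya2 (5X mix: 250 nM and 500 nM), glutathione donor and nickel acceptor beads; buffer 50 mM Tris pH 8.0, 300 mM NaCl, 1 mM TCEP; 1 h at 37 C in the dark.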
D2 ag = Beta-Arrestin HTS for Positive Allosteric Modulators of the Human D2 Dopamine Receptor: Agonists. D(2) dopamine receptor (Homo sapiens), P14416. DiscoveRx PathHunter D2 beta-arrestin, luminescence, 90 min; 100% = 57 uM dopamine signal. activation, % (concentration not given with the values). actives 0.084% (n = 360,000). AID 624465, 2012; in the data active = activation above about 40%; inconclusive = about 15% to 40%; inactive = below about 15%; note: compound concentration not given in the record; the text of the record calls up to 30% inactive
Target sequence (P14416 whole entry, looked up): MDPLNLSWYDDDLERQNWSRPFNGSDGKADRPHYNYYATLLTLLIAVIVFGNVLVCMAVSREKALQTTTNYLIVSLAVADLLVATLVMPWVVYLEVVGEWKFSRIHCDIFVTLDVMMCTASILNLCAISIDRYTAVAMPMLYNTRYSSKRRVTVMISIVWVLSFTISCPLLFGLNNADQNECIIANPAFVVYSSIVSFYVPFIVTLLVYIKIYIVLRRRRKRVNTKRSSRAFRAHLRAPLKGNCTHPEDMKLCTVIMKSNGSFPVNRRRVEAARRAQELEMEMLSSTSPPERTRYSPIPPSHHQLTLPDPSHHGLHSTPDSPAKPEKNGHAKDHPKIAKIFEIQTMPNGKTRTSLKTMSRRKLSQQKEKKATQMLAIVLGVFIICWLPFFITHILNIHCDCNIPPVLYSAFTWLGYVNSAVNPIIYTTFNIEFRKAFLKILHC
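DiscoveRx PathHunter D2 beta-arrestin cells (2,100/well) attached overnight, then compound-stimulated 90 min at 37 C in HBSS/10 mM HEPES/0.1% Tween-20 buffer; beta-galactosidase complementation read by luminescence after 1 h at ambient temperature. Dopamine 57 uM final (EC100) as control.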
TRPV1 PAM = HTS Assay for Compounds that Act as Potentiators of the Vanilloid Receptor 1. Transient receptor potential cation channel subfamily V member 1 (Homo sapiens), Q8NER1. TRPV1-expressing cells, Fluo-8 calcium influx, capsaicin EC20 potentiation; host cell line not named in the record; control for the full effect not named in the record. potentiation, % at 8.33 µM. actives 0.02% (n = 320,000). AID 540277, 2011; active means potentiation above 80%; inconclusive means 30% to 80%; inactive means below 30%; note: 0% is about no effect
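TRPV1-expressing cells were cultured overnight at 35.5C and loaded with Fluo-8 calcium dye for 40 to 90 min at room temperature. After a 10 s baseline, compound was added and calcium influx was read kinetically for 3 min (ex 480/em 520 nm).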
CtBP-E1A inh = qHTS Assay for Inhibitors of the CtBP/E1A Interaction; CtBP / adenovirus E1A interaction (AlphaScreen); AID 651724, 2012; AlphaScreen GST-E1A/His-CtBP binding, 1536-well; active compounds read low; control for the full effect not named in the record; actives 0.49% (n = 340,000); activity change, % (no concentration beside the values); in the data active means activity change below about -65%; inconclusive means about -30% to -65%; inactive means above about -30%; note: % is set by controls: 0 for no effect and ±100 for the full control effect
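Protein mix (5X: 125 nM each GST-E1A, His-CtBP) was incubated with pinned compound 2 h at 37 deg C in dark, in 50 mM Tris pH 8.0 buffer with 300 mM NaCl. Glutathione donor and nickel acceptor beads followed; AlphaScreen signal read after 1 h.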
PINK1 modulator = A Quantitative High throughput Screen to Identify Chemical Modulators of PINK1 Expression | PINK1 immunofluorescence, high-content cytometry, 24 h | Potency, µM (series often up to 76.6 µM), without a hit: top-dose activation (PINK1 increase), hits mostly activators | actives 0.2% (n = 410,000) | AID 624263, 2012; active = well fitted activation curve with a large enough effect; inconclusive = small, poorly fitted or top-dose-only effect; inactive = flat fitted curve, though single readings scatter; cell line not stated here;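 note: potency is the fitted concentration of half-maximal effect; % of control where 0% means no effect; nearly all actives have a fitted effect of over 65% in size; a mitochondrial uncoupler was the plate control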
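Readout is PINK1 immunofluorescence, quantified alongside mitochondrial, cell and nuclear markers by laser-scanning microplate cytometry. Cells from a stable line were exposed to compound titrations (5 concentrations) for 24 hours, with CCCP controls.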
D2 potentiator = Beta-Arrestin HTS for Positive Allosteric Modulators of the Human D2 Dopamine Receptor: Potentiators; DiscoveRx D2 beta-arrestin cells, luminescence, 90 min; 100% = 57 uM dopamine signal; potentiation, % (concentration not given with the values); actives 0.23% (n = 360,000); AID 624464, 2012; active = potentiation of 50% or more; inconclusive = 30% to 50%; inactive = 30% or less;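 note: compound concentration not given in the record; tested on top of an EC20 dose of dopamine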
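PathHunter beta-arrestin assay in DiscoveRx D2 cells. Compounds were added with an EC20 of dopamine (50 nM final) for 90 min at 37 deg C. Luminescence was read 1 h after detection reagent, with 57 uM dopamine as the EC100 control.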
Sfp inh = qHTS Assay for Inhibitors of Bacillus subtilis Sfp phosphopantetheinyl transferase (PPTase). actives 3.5% (n = 310,000). Potency, µM, without a hit: max response, negative = inhibition, usual class: inhibitors. 4'-phosphopantetheinyl transferase ffp (Bacillus subtilis), Q9F4F7. Biochemical Sfp PPTase activity, qHTS; active = well fitted inhibition curve with a large enough effect; inconclusive = small, poorly fitted or top-dose-only effect, or another doubt; inactive = no such curve, though single readings can be large or run the other way;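 note: the enzyme is Sfp with the accession as filed and its product quenches rhodamine fluorescence; potency is the fitted concentration of half-maximal effect; 0% = enzyme reaction without inhibitor and -100% = no enzyme wells; top concentration of the series not given in the record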
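With Hepes-Na pH 7.6 buffer containing 10 mM MgCl2, Sfp (15 nM) modified BHQ-2-YbbR (12.5 uM) using rhodamine-CoA (5 uM). Two reads 30 minutes apart at 525/598 nm yielded each well's rate.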
* = called active by the depositor; [ ] = another dose, or the depositor's remark.

Sample of the layout, 2 compounds:
Screening S=C1NC2=C(C(c3ccc(Br)cc3)N1)N1CCC2CC1 (stereo unspecified) returned Six1-Eya2 blk 15, D2 ag -5.9, TRPV1 PAM -5, CtBP-E1A inh 0, PINK1 modulator 0.5%, D2 potentiator -20 and Sfp inh 9%.
For COc1ccccc1/C=C/C(C)=O the results were Six1-Eya2 blk 5, D2 ag -0.9, TRPV1 PAM inconclusive, CtBP-E1A inh 13, PINK1 modulator 1.3%, D2 potentiator -6 and Sfp inh 15%.

This part in full, from the first entry:
Screening S=C1NC2=C(C(c3ccc(Br)cc3)N1)N1CCC2CC1 (stereo unspecified) returned Six1-Eya2 blk 15, D2 ag -5.9, TRPV1 PAM -5, CtBP-E1A inh 0, PINK1 modulator 0.5%, D2 potentiator -20 and Sfp inh 9%.
For COc1ccccc1/C=C/C(C)=O the results were Six1-Eya2 blk 5, D2 ag -0.9, TRPV1 PAM inconclusive, CtBP-E1A inh 13, PINK1 modulator 1.3%, D2 potentiator -6 and Sfp inh 15%.
For O=C(CCSc1ccccc1)NC(=O)COC(=O)C1CCCCC1 the results were Six1-Eya2 blk 1, D2 ag 1.6, TRPV1 PAM -11, CtBP-E1A inh 4, PINK1 modulator 5.3%, D2 potentiator -18 and Sfp inh -14%.
CCC(CC)C(=O)c1c[nH]c(C(=O)NCCOC)c1 was read as Six1-Eya2 blk -1, D2 ag -3.5, TRPV1 PAM 7, CtBP-E1A inh 13, PINK1 modulator 0.4%, D2 potentiator -8 and Sfp inh -1%.
CCCCCCCCN1C(=O)[C@H](CC(=O)NCCCOC)C[C@@]2(C(=O)OC)CCCCC=C12 was read as Six1-Eya2 blk 0, CtBP-E1A inh 4 and PINK1 modulator 3.1%.
Screening Cc1nc2ccc(NC(=O)c3ccc(Cl)nc3)cc2s1 returned Six1-Eya2 blk 1, D2 ag -2.1, TRPV1 PAM 4, PINK1 modulator -0.1%, D2 potentiator -16 and Sfp inh 11%.
`COc1ccc2nc(NC(=O)c3ccccc3C(=O)O)sc2c1` gave Six1-Eya2 blk -9, D2 ag -1.5, TRPV1 PAM -2, CtBP-E1A inh 10, PINK1 modulator -3.1%, D2 potentiator -2 and Sfp inh 8%.
Screening CC1(c2ccc(OC(F)F)cc2)NC(=O)N(CC(=O)Nc2cccnc2Cl)C1=O (stereo unspecified) returned Six1-Eya2 blk -2, D2 ag -8.5, TRPV1 PAM -6, CtBP-E1A inh 10, PINK1 modulator 3.0% and D2 potentiator 3.
For COc1cc(OC)cc(-c2cc(N3C(=O)Nc4ccccc4N3O)n[nH]2)c1 the results were Six1-Eya2 blk 1, D2 ag -3.5, TRPV1 PAM 4, CtBP-E1A inh 21, PINK1 modulator -0.4%, D2 potentiator -1 and Sfp inh 4%.
`COc1ccc(N(CCC(=O)O)S(=O)(=O)c2ccc(C)cc2C)cc1` gave Six1-Eya2 blk 4, D2 ag -1.4, TRPV1 PAM 1, CtBP-E1A inh -5, PINK1 modulator 1.3%, D2 potentiator 5 and Sfp inh 34%[activator].
For COC(=O)CSc1ccc(-c2nc3ccc(C)cc3[nH]2)cn1 the results were Six1-Eya2 blk -21, D2 ag -4.4, TRPV1 PAM -13, CtBP-E1A inh -11, PINK1 modulator 2.8%, D2 potentiator -15 and Sfp inh -11%.
Screening Cc1noc(C)c1NC(=O)N(C)C[C@H]1Oc2ccc(NC(=O)C3CCCCC3)cc2C(=O)N([C@H](C)CO)C[C@@H]1C returned Six1-Eya2 blk 1, D2 ag -2.5, CtBP-E1A inh 6, PINK1 modulator 0.3% and D2 potentiator 0.
CN(Cc1ccc(Cl)cc1)C(=O)c1ccccc1SCC(=O)N1CCCC1 was read as Six1-Eya2 blk -4, D2 ag -9.9, TRPV1 PAM 25, CtBP-E1A inh 10, PINK1 modulator -0.4% and D2 potentiator -26.
Cc1ccnc(NC(=O)CCC(=O)N(CC(=O)NCCc2ccccc2)c2ccccc2F)c1 was read as Six1-Eya2 blk -7, D2 ag -1.4, TRPV1 PAM 4, CtBP-E1A inh 10, PINK1 modulator 0.6%, D2 potentiator 4 and Sfp inh -10%.
For Cc1ccccc1NC(=O)C(C)OC(=O)C1CC(=O)N(Cc2ccco2)C1 (stereo unspecified) the results were Six1-Eya2 blk -1, D2 ag -6.8, TRPV1 PAM -8, CtBP-E1A inh 6, PINK1 modulator -0.6% and D2 potentiator -2.
`COc1ccc(C(=O)Oc2ccc3c(c2)OCO3)cc1OC` gave Six1-Eya2 blk -1, D2 ag -3.7, TRPV1 PAM -1, CtBP-E1A inh -2, PINK1 modulator -0.2%, D2 potentiator 3 and Sfp inh 8%.
CCc1cccc(C)c1NC(=S)NCc1ccc2[nH]c(C)cc2c1 was read as Six1-Eya2 blk -22, D2 ag -2.5, TRPV1 PAM 5, CtBP-E1A inh -9, PINK1 modulator 1.5%, D2 potentiator -10 and Sfp inh 1%.
For CC(Oc1cc2oc(=O)c3c(c2cc1Cl)CCC3)C(=O)NCC1CCC(C(=O)O)CC1 (stereo unspecified) the results were Six1-Eya2 blk 1, D2 ag 1.4, TRPV1 PAM 0, CtBP-E1A inh 6, PINK1 modulator 2.0%, D2 potentiator -1 and Sfp inh 8%.
CCCCN(C(=O)C(CCSC)N1C(=O)c2ccccc2C1=O)c1c(N)n(CCC)c(=O)[nH]c1=O (stereo unspecified) was read as Six1-Eya2 blk 7, D2 ag 3.1, TRPV1 PAM 7, CtBP-E1A inh 2, PINK1 modulator 2.8% and D2 potentiator -3.
COc1cccc(N2CCN(C(=O)c3ccc(CS(=O)c4ccc(C)cc4)o3)CC2)c1 (stereo unspecified) was read as Six1-Eya2 blk 17, D2 ag 0.0, TRPV1 PAM 2, CtBP-E1A inh -14, PINK1 modulator 3.8%, D2 potentiator -4 and Sfp inh 8%.
CCc1ccc(C(=O)NNC(=O)C2CCN(c3ncnc4sc(C)c(C)c34)CC2)cc1 was read as Six1-Eya2 blk -15, D2 ag 8.0, TRPV1 PAM 12, CtBP-E1A inh inconclusive, PINK1 modulator -0.3% and D2 potentiator 15.
CCCCCSc1ncccc1C(=O)O was read as Six1-Eya2 blk -3, D2 ag -5.4, TRPV1 PAM 11, CtBP-E1A inh -20, PINK1 modulator -0.7%, D2 potentiator 2 and Sfp inh 8%.
Screening CC(C)N(C#N)c1nc(N2CCOCC2)nc(N2CCOCC2)n1 returned Six1-Eya2 blk -2, D2 ag -1.7, TRPV1 PAM -16, CtBP-E1A inh 5, PINK1 modulator -1.8%, D2 potentiator 15 and Sfp inh 14%.
Screening COc1cccc(CCc2nnc(CCC(=O)N3CCN(Cc4ccccn4)CC3)o2)c1 returned Six1-Eya2 blk -15, D2 ag 2.4, TRPV1 PAM 8, CtBP-E1A inh 0, PINK1 modulator 2.0%, D2 potentiator -3 and Sfp inh 4%.
For Nc1nc2ccccc2n1/N=C/c1cccnc1 the results were Six1-Eya2 blk -2, D2 ag -0.1, CtBP-E1A inh 1, PINK1 modulator -2.5% and D2 potentiator -1.
`CN(C)S(=O)(=O)c1ccc(NC(=O)c2c(F)cccc2Cl)cc1` gave Six1-Eya2 blk 2, D2 ag 0.7, TRPV1 PAM -17, CtBP-E1A inh 6, PINK1 modulator -1.1%, D2 potentiator 5 and Sfp inh 3%.
Screening CSCCC(NC(=O)COc1ccccc1)C(=O)N1CCCC(C)C1 (stereo unspecified) returned Six1-Eya2 blk -12, D2 ag -3.3, TRPV1 PAM 0, CtBP-E1A inh -27, PINK1 modulator 0.7%, D2 potentiator -11 and Sfp inh 10%.
For Cc1ccc(C(=O)NC(=S)Nc2ccccc2N2CCOCC2)cc1C the results were Six1-Eya2 blk 0, D2 ag 1.1, TRPV1 PAM 11, CtBP-E1A inh 0, PINK1 modulator 2.1%, D2 potentiator -35 and Sfp inh 4%.
Screening O=C(NN1C(=O)c2cc(Br)ccc2NC1c1ccccc1Cl)c1ccncc1 (stereo unspecified) returned Six1-Eya2 blk 0, D2 ag -4.0, TRPV1 PAM 4, CtBP-E1A inh 12, PINK1 modulator -1.5%, D2 potentiator -20 and Sfp inh -4%.
For CC(C)CN(C)C(=O)CC1C(=O)NCCN1C (stereo unspecified) the results were Six1-Eya2 blk -1, D2 ag -1.4, TRPV1 PAM -6, CtBP-E1A inh -2, PINK1 modulator -0.4%, D2 potentiator -6 and Sfp inh -5%.
S=C(NCCN1CCOCC1)NC1CCCCC1 was read as Six1-Eya2 blk 0, D2 ag -1.3, TRPV1 PAM 18, CtBP-E1A inh 12, PINK1 modulator 0.3%, D2 potentiator -4 and Sfp inh 10%.
For CC1CN(C(=O)CCC(=O)N2CCOCC2)c2ccccc2O1 (stereo unspecified) the results were Six1-Eya2 blk 9, D2 ag -4.5, TRPV1 PAM -21, CtBP-E1A inh 3, PINK1 modulator 1.6%, D2 potentiator -1 and Sfp inh 16%.
COc1cccc(-c2nn(-c3ccccc3)cc2C(=O)O)c1 was read as Six1-Eya2 blk 0, D2 ag -2.7, TRPV1 PAM 3, CtBP-E1A inh 5, PINK1 modulator 1.5%, D2 potentiator -11 and Sfp inh 7%.
Screening CCN(C#N)c1nc(NC(C)C)nc(NC(C)(C)C)n1 returned Six1-Eya2 blk 9, D2 ag -4.0, TRPV1 PAM -26, CtBP-E1A inh 4, PINK1 modulator -0.4%, D2 potentiator -3 and Sfp inh 17%.
O=C(CCNS(=O)(=O)c1ccccc1C(F)(F)F)NCCCc1ccccc1 was read as Six1-Eya2 blk 9, D2 ag -2.3, TRPV1 PAM -5, CtBP-E1A inh 2, PINK1 modulator 2.2% and D2 potentiator -2.
For O=C(O)c1cc(NS(=O)(=O)c2ccc3ccccc3c2)ccc1O the results were Six1-Eya2 blk 49, D2 ag -2.8, TRPV1 PAM 12, PINK1 modulator 3.1%, D2 potentiator -22 and Sfp inh 8%.

Not a hit list. About 3.7% of those tested had a hit in this group.
